Screening results from PubChem BioAssay.
STAT3 binder: STAT3 (human) binding. P40763. Small molecule microarray, His-STAT3 binding, anti-His fluorescence. calls only. 17,000 tested, 0.2% active. AID 624138;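 active means compounds whose four printed spots each show fluorescence over background unusually high for their array block, chance value under 7%; compounds were printed on slides so no solution concentration is given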;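 further: about 2 pmol printed per array spot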
Target sequence (P40763 whole entry, looked up): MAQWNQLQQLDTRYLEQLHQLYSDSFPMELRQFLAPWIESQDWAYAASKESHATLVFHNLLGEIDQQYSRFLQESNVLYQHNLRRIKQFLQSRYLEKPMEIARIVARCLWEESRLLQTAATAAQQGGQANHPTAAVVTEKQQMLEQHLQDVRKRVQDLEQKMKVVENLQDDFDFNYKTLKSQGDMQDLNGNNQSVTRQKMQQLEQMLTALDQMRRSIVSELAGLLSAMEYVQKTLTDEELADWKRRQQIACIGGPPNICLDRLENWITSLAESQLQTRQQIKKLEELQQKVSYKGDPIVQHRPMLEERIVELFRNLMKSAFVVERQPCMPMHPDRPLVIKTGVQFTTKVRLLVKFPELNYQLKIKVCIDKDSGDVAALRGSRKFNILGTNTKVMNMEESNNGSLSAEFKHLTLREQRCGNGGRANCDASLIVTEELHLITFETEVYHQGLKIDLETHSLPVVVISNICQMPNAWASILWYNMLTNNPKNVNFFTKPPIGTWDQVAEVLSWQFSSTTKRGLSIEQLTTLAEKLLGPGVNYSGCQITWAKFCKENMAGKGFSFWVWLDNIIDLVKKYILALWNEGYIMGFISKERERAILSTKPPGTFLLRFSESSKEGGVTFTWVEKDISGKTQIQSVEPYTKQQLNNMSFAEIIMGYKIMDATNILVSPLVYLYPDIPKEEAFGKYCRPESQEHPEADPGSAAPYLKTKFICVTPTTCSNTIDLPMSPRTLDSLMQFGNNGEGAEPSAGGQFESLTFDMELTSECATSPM
c-Myc SMM: binders of human c-Myc; P01106; small molecule microarray, His-c-Myc binding, anti-His fluorescence; calls only; 17,000 tested, 1.5% active; AID 624141;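 active means spot fluorescence over background with P-value below 7% in all four replicate spots, showing protein binding; compounds were printed on slides so no solution concentration is given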;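 further: score is binary with 100 for all four spots passing and 0 otherwise; about 2 pmol printed per array spot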
p53 mut binder: binds human mutant p53 on microarray | small molecule microarray binding, anti-GST fluorescence | calls only | 17,000 tested, 0.4% active | AID 624136;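 active means compounds whose four printed spots each glow above background more than chance allows, each with a p-value under 7%; compounds were printed on slides so no solution concentration is given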;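 further: about 2 pmol printed per array spot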
ID4 SMM: binders of human ID4 protein. AID 624137. 31,000 tested, 1.2% active. small molecule microarray, Flag-ID4 binding, fluorescence F/B. calls only;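 active means spot signal over background at p below 0.07 in all four prints; compounds were printed on slides so no solution concentration is given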;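 further: a binder raises fluorescence above local background on the spot; about 2 pmol printed per array spot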
Target sequence (P47928 whole entry, looked up): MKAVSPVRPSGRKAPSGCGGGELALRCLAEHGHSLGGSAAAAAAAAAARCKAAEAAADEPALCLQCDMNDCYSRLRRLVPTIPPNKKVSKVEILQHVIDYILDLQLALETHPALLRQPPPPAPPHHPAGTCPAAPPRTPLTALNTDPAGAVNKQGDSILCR
Calls only. A portion of the library, so the mix of outcomes need not match the whole.

What do the screens show for `COc1cc(C2c3c(cc(OC)c(O)c3OC)CC(CO)C2COC2OC(CO)C(O)C(O)C2O)cc(OC)c1O` (stereo unspecified)?
STAT3 binder: inactive; c-Myc SMM: inactive; p53 mut binder: inactive; ID4 SMM: inactive

What do the screens show for `C[C@@H]1CCCCO[C@@H](CN(C)C(=O)CCCN(C)C)[C@H](C)CN([C@H](C)CO)C(=O)c2cc(NC(=O)Nc3cccc4ccccc34)ccc2O1`?
STAT3 binder: inactive; c-Myc SMM: inactive; p53 mut binder: inactive

How did O=C(CSc1nnnn1-c1ccccc1)Nc1cccc(C(=O)O)c1 do in these assays?
STAT3 binder: inactive; c-Myc SMM: inactive; p53 mut binder: inactive; ID4 SMM: inactive

What do the screens show for `C[C@H](CO)N1C[C@H](C)[C@@H](CN(C)Cc2ccc(C(=O)O)cc2)OCCCC[C@H](C)Oc2ccc(NC(=O)c3ccncc3)cc2C1=O`?
STAT3 binder: inactive; c-Myc SMM: inactive; p53 mut binder: inactive; ID4 SMM: inactive

Results for Cc1cc(C)nc(NS(=O)(=O)c2ccc(-n3c(-c4ccc5ccccc5n4)n[nH]c3=S)cc2)n1 ?
STAT3 binder: inactive; c-Myc SMM: inactive; p53 mut binder: inactive; ID4 SMM: inactive

How did Cc1cccc(-n2c(N)cc(=O)nc2SCC(=O)Nc2sc3c(c2C#N)CCCCCC3)c1 do in these assays?
STAT3 binder: inactive; c-Myc SMM: inactive; p53 mut binder: inactive; ID4 SMM: inactive

How did C=C1CCC(O)/C(C)=C\CC(C(C)C)C(OC2OC(COC(C)=O)C(O)C(O)C2O)C1 (stereo unspecified) do in these assays?
STAT3 binder: inactive; c-Myc SMM: inactive; p53 mut binder: inactive

How did Cc1noc(C)c1S(=O)(=O)Nc1cccc2c1O[C@@H](CN(C)S(=O)(=O)c1cn(C)cn1)[C@@H](C)CN([C@H](C)CO)C2=O do in these assays?
STAT3 binder: inactive; c-Myc SMM: inactive; p53 mut binder: inactive; ID4 SMM: inactive

Results for O=C(O)c1cc(Oc2ccc([N+](=O)[O-])cc2)cc(Oc2ccc([N+](=O)[O-])cc2)c1 ?
STAT3 binder: inactive; c-Myc SMM: inactive; p53 mut binder: inactive; ID4 SMM: inactive

Results for O=C(NCc1ccco1)c1nc2ncccn2n1 ?
STAT3 binder: inactive; c-Myc SMM: inactive; p53 mut binder: inactive; ID4 SMM: inactive

Results for C[C@@H]1CN([C@@H](C)CO)C(=O)Cc2cc(NC(=O)Nc3ccc4c(c3)OCO4)ccc2O[C@@H]1CN(C)S(=O)(=O)c1cn(C)cn1 ?
STAT3 binder: inactive; c-Myc SMM: inactive; p53 mut binder: inactive

What do the screens show for `C[C@@H]1CN([C@@H](C)CO)C(=O)c2cc(NS(=O)(=O)c3cn(C)cn3)ccc2O[C@@H](C)CCCCO[C@@H]1CN(C)C(=O)c1ccccc1`?
STAT3 binder: inactive; c-Myc SMM: inactive; p53 mut binder: inactive; ID4 SMM: inactive

What do the screens show for `C[C@@H]1CCCCO[C@@H](CN(C)S(=O)(=O)c2ccccc2)[C@@H](C)CN([C@H](C)CO)C(=O)c2cc(NC(=O)Nc3ccccc3)ccc2O1`?
STAT3 binder: inactive; c-Myc SMM: inactive; p53 mut binder: inactive; ID4 SMM: inactive

How did Cc1noc(C)c1S(=O)(=O)Nc1ccc2c(c1)C(=O)N([C@@H](C)CO)C[C@@H](C)[C@H](CN(C)C(=O)Nc1ccccc1)OCCCC[C@@H](C)O2 do in these assays?
STAT3 binder: inactive; c-Myc SMM: inactive; p53 mut binder: inactive; ID4 SMM: inactive

How did O=c1n(-c2ccccc2)c(=O)n2n1CC(COc1ccccc1)=C1[C@@H](CCc3ccccc3)OB(O)C[C@@H]12 do in these assays?
STAT3 binder: inactive; c-Myc SMM: inactive; p53 mut binder: inactive; ID4 SMM: inactive

What do the screens show for `COc1cc2c(cc1O)C(C1CC1)N(C)CC2` (stereo unspecified)?
STAT3 binder: inactive; c-Myc SMM: inactive; p53 mut binder: inactive; ID4 SMM: inactive

Results for CC(NC(=O)COc1ccc(Cl)cc1Cl)C(=O)O (stereo unspecified) ?
STAT3 binder: inactive; c-Myc SMM: inactive; p53 mut binder: inactive; ID4 SMM: inactive

Results for COC(=O)c1c(NC(=S)Nc2ccc(CC(=O)O)cc2)sc(C)c1C ?
STAT3 binder: inactive; c-Myc SMM: inactive; p53 mut binder: inactive; ID4 SMM: active

Results for C[C@@H]1CN([C@@H](C)CO)C(=O)c2cc(NC(=O)c3ccncc3)ccc2O[C@@H](C)CCCCO[C@@H]1CN(C)S(=O)(=O)c1ccc(F)cc1 ?
STAT3 binder: inactive; c-Myc SMM: inactive; p53 mut binder: inactive; ID4 SMM: inactive

What do the screens show for `[N-]=[N+]=NCc1ccccc1C[C@@]1(C(=O)NCCN2CCOCC2)N=C(c2ccc(OCCCO)cc2)O[C@@H]1c1ccccc1`?
STAT3 binder: inactive; c-Myc SMM: inactive; p53 mut binder: inactive; ID4 SMM: inactive

Results for Cc1ccc(N(C(=O)COc2ccccc2[N+](=O)[O-])C2C=CS(=O)(=O)C2)cc1 (stereo unspecified) ?
STAT3 binder: inactive; c-Myc SMM: inactive; p53 mut binder: inactive; ID4 SMM: inactive

What do the screens show for `Cc1ccc(Sc2cncc3sc(C(N)=O)cc23)cc1`?
STAT3 binder: inactive; c-Myc SMM: inactive; p53 mut binder: inactive; ID4 SMM: inactive

Results for Cc1cccc(-n2c(CCN3C(=O)c4ccccc4C3=O)nc3ccccc3c2=O)n1 ?
STAT3 binder: inactive; c-Myc SMM: inactive; p53 mut binder: inactive; ID4 SMM: inactive

Results for O=C(OCC1OC(Oc2ccc(O)cc2COC(=O)C2(O)C(O)CCC(=O)C2O)C(O)C(O)C1O)c1ccccc1 (stereo unspecified) ?
STAT3 binder: inactive; c-Myc SMM: inactive; p53 mut binder: inactive; ID4 SMM: inactive

Results for C[C@@H]1CN([C@H](C)CO)C(=O)c2cc(N(C)C)ccc2O[C@@H](C)CCCCO[C@@H]1CN(C)Cc1ccccc1 ?
STAT3 binder: active; c-Myc SMM: inactive; p53 mut binder: active; ID4 SMM: inactive

Results for C[C@@H]1CN([C@@H](C)CO)C(=O)c2cccc(NC(=O)c3nc4ccccc4s3)c2O[C@H]1CN(C)S(=O)(=O)c1cccs1 ?
STAT3 binder: inactive; c-Myc SMM: inactive; p53 mut binder: inactive; ID4 SMM: inactive

How did NCCCN(Cc1ccco1)C1CCCC1 do in these assays?
STAT3 binder: inactive; c-Myc SMM: active; p53 mut binder: inactive; ID4 SMM: inactive

What do the screens show for `COc1cc(/C=C/C(=O)OC2C(COC(=O)c3cc(OC)c(OC)c(OC)c3)OC(OC3(CO)OC(CO)C(O)C3O)C(O)C2O)cc(OC)c1OC` (stereo unspecified)?
STAT3 binder: inactive; c-Myc SMM: inactive; p53 mut binder: inactive; ID4 SMM: inactive

Results for C[C@@H]1CCCCO[C@@H](CN(C)C)[C@@H](C)CN([C@H](C)CO)C(=O)c2cc(NC(=O)Cc3ccccc3)ccc2O1 ?
STAT3 binder: inactive; c-Myc SMM: inactive; p53 mut binder: inactive; ID4 SMM: inactive

What do the screens show for `C[C@@H]1CN([C@@H](C)CO)C(=O)Cc2cc(NC(=O)Nc3ccc(F)cc3)ccc2O[C@@H]1CN(C)Cc1ccc(C(=O)O)cc1`?
STAT3 binder: inactive; c-Myc SMM: inactive; p53 mut binder: inactive; ID4 SMM: inactive

Results for COc1ccc(-c2cnc3c(c2)C(=O)N([C@H](C)CO)C[C@H](C)[C@H](CN(C)Cc2ccc(F)cc2)O3)cc1 ?
STAT3 binder: inactive; c-Myc SMM: inactive; p53 mut binder: inactive; ID4 SMM: inactive

Results for COc1ccc(NS(=O)(=O)c2ccc3oc4ccccc4c3c2)cn1 ?
STAT3 binder: inactive; c-Myc SMM: inactive; p53 mut binder: inactive; ID4 SMM: inactive

What do the screens show for `C[C@@H]1CCCCO[C@@H](CN(C)Cc2ccc(C(=O)O)cc2)[C@@H](C)CN([C@H](C)CO)C(=O)c2cc(NC(=O)Nc3ccc(F)cc3)ccc2O1`?
STAT3 binder: inactive; c-Myc SMM: inactive; p53 mut binder: inactive; ID4 SMM: inactive

How did Cc1ccc(S(=O)(=O)N(C)C[C@H]2Oc3ccc(NC(=O)C4CC4)cc3CC(=O)N([C@@H](C)CO)C[C@H]2C)cc1 do in these assays?
STAT3 binder: inactive; c-Myc SMM: inactive; p53 mut binder: inactive; ID4 SMM: inactive

How did C[C@@H]1CN([C@H](C)CO)C(=O)c2cc(NC(=O)c3ccccc3)ccc2O[C@@H](C)CCCCO[C@H]1CN(C)C(=O)Nc1cccc2ccccc12 do in these assays?
STAT3 binder: inactive; c-Myc SMM: inactive; p53 mut binder: inactive

How did CC(C)NC(=O)N(C)C[C@H]1Oc2c(NC(=O)C3CCOCC3)cccc2C(=O)N([C@@H](C)CO)C[C@@H]1C do in these assays?
STAT3 binder: inactive; c-Myc SMM: inactive; p53 mut binder: inactive; ID4 SMM: inactive

What do the screens show for `CCc1ccc(NC(=O)CSc2nc(C)cc(C)n2)cc1`?
STAT3 binder: inactive; c-Myc SMM: inactive; p53 mut binder: inactive; ID4 SMM: inactive

How did COCCn1c(=O)c2c3c(sc2n(CC(N)=O)c1=O)CCCC3 do in these assays?
STAT3 binder: inactive; c-Myc SMM: inactive; p53 mut binder: inactive; ID4 SMM: inactive

Results for CNC[C@H]1Oc2ccc(NC(=O)Nc3ccc4c(c3)OCO4)cc2CC(=O)N([C@@H](C)CO)C[C@@H]1C ?
STAT3 binder: inactive; c-Myc SMM: inactive; p53 mut binder: inactive; ID4 SMM: active

How did C#CCNC(=O)C1=C[C@@H](c2ccccc2)C[C@@H](OCc2ccc(CO)cc2)O1 do in these assays?
STAT3 binder: inactive; c-Myc SMM: inactive; p53 mut binder: inactive

How did C[C@@H]1CCCCO[C@@H](CN(C)C(=O)CCCN(C)C)[C@@H](C)CN([C@@H](C)CO)C(=O)c2cc(N(C)C)ccc2O1 do in these assays?
STAT3 binder: inactive; c-Myc SMM: inactive; p53 mut binder: inactive; ID4 SMM: inactive

What do the screens show for `C[C@@H]1CN([C@H](C)CO)C(=O)c2cc(NC(=O)CCC(F)(F)F)ccc2O[C@@H]1CN(C)C(=O)Nc1ccccc1`?
STAT3 binder: inactive; c-Myc SMM: inactive; p53 mut binder: inactive; ID4 SMM: inactive

How did C[C@@H]1CN([C@H](C)CO)C(=O)c2cc(NC(=O)Cc3cn(C)c4ccccc34)ccc2O[C@H]1CN(C)C(=O)NC1CCCCC1 do in these assays?
STAT3 binder: inactive; c-Myc SMM: inactive; p53 mut binder: inactive; ID4 SMM: inactive

Results for CC(=O)Nc1ccc(C(=O)CSc2ncn[nH]2)cc1 ?
STAT3 binder: inactive; c-Myc SMM: inactive; p53 mut binder: inactive; ID4 SMM: inactive

How did O=C1O[C@H](c2ccccc2)[C@H](c2ccccc2)N2[C@H]1[C@@H](C(=O)N1CCCCCCC1)[C@]1(C(=O)Nc3ccccc31)[C@H]2c1ccc(O)cc1 do in these assays?
STAT3 binder: inactive; c-Myc SMM: active; p53 mut binder: active; ID4 SMM: inactive

What do the screens show for `O=C1CSC(c2ccccc2)N1c1ccccc1` (stereo unspecified)?
STAT3 binder: inactive; c-Myc SMM: inactive; p53 mut binder: inactive; ID4 SMM: inactive

Results for C=CCOC(=O)[C@@H]1[C@H]2C(=O)O[C@H](c3ccccc3)[C@H](c3ccccc3)N2[C@H](c2ccc(OCCOC(=O)[C@@H]3C[C@@H]4C(=O)N5CCC[C@H]5C(=O)N4[C@@H]3c3ccc(O)cc3)cc2)[C@@]12C(=O)Nc1ccc(I)cc12 ?
STAT3 binder: inactive; c-Myc SMM: inactive; p53 mut binder: inactive; ID4 SMM: inactive

Results for O=C(N1CCCCC1)[C@@]1(Cc2ccccc2)N=C(c2ccc(OCCCO)cc2)O[C@H]1c1ccccc1 ?
STAT3 binder: inactive; c-Myc SMM: inactive; p53 mut binder: inactive

Structural class, those above containing an NH in an aromatic ring (two)
Results for Cc1cc(C)nc(NS(=O)(=O)c2ccc(-n3c(-c4ccc5ccccc5n4)n[nH]c3=S)cc2)n1 ?
STAT3 binder: inactive; c-Myc SMM: inactive; p53 mut binder: inactive; ID4 SMM: inactive

Results for CC(=O)Nc1ccc(C(=O)CSc2ncn[nH]2)cc1 ?
STAT3 binder: inactive; c-Myc SMM: inactive; p53 mut binder: inactive; ID4 SMM: inactive

Next records
What do the screens show for `Cc1ccc(S(=O)(=O)N(C)C[C@H]2Oc3ccc(NS(=O)(=O)c4cccs4)cc3C(=O)N([C@H](C)CO)C[C@@H]2C)cc1`?
STAT3 binder: inactive; c-Myc SMM: inactive; p53 mut binder: inactive

Results for COc1cccc(Oc2coc3cc(OCC(N)=O)ccc3c2=O)c1 ?
STAT3 binder: inactive; c-Myc SMM: inactive; p53 mut binder: inactive; ID4 SMM: inactive

How did C[C@H](CO)N1C[C@H](C)[C@H](CN(C)C(=O)C2CC2)OCc2cnnn2CCCC1=O do in these assays?
STAT3 binder: inactive; c-Myc SMM: inactive; p53 mut binder: inactive; ID4 SMM: inactive

Results for C[C@H]1CN([C@@H](C)CO)C(=O)c2cccc(NC(=O)NC3CCCCC3)c2O[C@H]1CN(C)Cc1ccc2c(c1)OCO2 ?
STAT3 binder: inactive; c-Myc SMM: inactive; p53 mut binder: inactive
